Screening results deposited in PubChem by several laboratories.
Ecoli growth: E. coli growth inhibition, primary screen, OD600; Escherichia coli growth, 23 h; active compounds read low; OD600 absorbance (concentration not given with the values); actives 0.21% (n = 330,000); AID 1053175, 2014;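 active = OD600 absorbance below the run mean of sample wells minus 3.6 SD, in any replicate, cut at about 0.56 in these data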;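 also: stock transfer was 300 nL into about 60 µL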
Ecoli rRNA inh: reduced GFP signal of wild-type E. coli, primary screen, bacterial rRNA inhibitor project, GFP/RFP fluorescence, OD600, single point. E. coli WT GFP vs humanized-ribosome RFP mutants, 24 h; active compounds read low; DMSO median 0, no signal -100. GFP signal change (wild-type ribosome), % (concentration not given with the values). actives 1.6% (n = 350,000). AID 720706, 2013;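 active = significant combined selectivity score with lowered wild-type GFP, culture density cut under 30%, mutant RFP and density less affected; inactive = any of these conditions unmet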; also: one replicate is shown; some compounds called inactive have numbers as strong as hits
UCH37 DUB inh: inhibitors of human UCH37 deubiquitinase, primary screen, biochemical, Ub-AMC cleavage, fluorescence | AID 588478, 2011 | purified proteasome/UCH37 | Ubiquitin carboxyl-terminal hydrolase isozyme L5 (Homo sapiens), Q9Y5K5 | inhibition, % (test concentration not listed) | actives 0.33% (n = 330,000);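 active = mean of two replicates above 20%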;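 also: 0% = compound-free wells with enzyme and 100% = wells lacking proteasome; stock transfer was 100 nL into about 20 µL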
Target sequence (Q9Y5K5 whole entry, looked up): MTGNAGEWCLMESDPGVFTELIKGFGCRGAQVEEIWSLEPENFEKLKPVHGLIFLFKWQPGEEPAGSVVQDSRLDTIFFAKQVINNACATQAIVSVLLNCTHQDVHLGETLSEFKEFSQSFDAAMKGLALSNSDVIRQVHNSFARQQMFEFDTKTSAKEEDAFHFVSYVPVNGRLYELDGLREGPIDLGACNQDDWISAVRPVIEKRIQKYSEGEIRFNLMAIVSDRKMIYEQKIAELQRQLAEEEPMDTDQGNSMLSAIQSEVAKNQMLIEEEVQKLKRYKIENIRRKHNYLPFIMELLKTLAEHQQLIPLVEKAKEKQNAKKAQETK
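Material: Human UCH37 enzyme supplied as purified proteasome complex | Schedule: 30 min compound-proteasome preincubation then 25 min substrate reaction, room temperature | Detection: AMC fluorescence from Ub-AMC cleavage, excitation 355 nm, emission 460 nm | Benchmarks: Wells without proteasome as full block, compound-free enzyme plus substrate as uninhibited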
FGF22 binding: binders of human FGF22 protein, primary screen, FGF22 synaptogenesis inhibitor project, biophysical, thermal shift, single point; AID 651658, 2012; Fibroblast growth factor 22 (Homo sapiens), Q9HCT0; actives 1.5% (n = 340,000); recombinant FGF22 thermal shift, SYPRO orange fluorescence; percent of sucrose octasulfate shift, DMSO zero; calls only at 9.99 µM;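 active = melting point raised past a set limit in the mean and every replicate; three in four hits are not shown here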
ALR H2O2 inh: inhibitors of human ALR sulfhydryl oxidase, primary screen, biochemical, H2O2 detection, HRP-luminol luminescence, single point. AID 485317, 2010. actives 3.8% (n = 290,000). purified ALR, DTT oxidation. inhibition, % (test concentration not listed). FAD-linked sulfhydryl oxidase ALR (Homo sapiens), P55789;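 active = mean and each replicate at 75% or more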;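 also: stock transfer was 7.5 nL into about 7.5 µL; 0% = neutral wells and 100% = wells with inactivated enzyme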
Target sequence (P55789 whole entry, looked up): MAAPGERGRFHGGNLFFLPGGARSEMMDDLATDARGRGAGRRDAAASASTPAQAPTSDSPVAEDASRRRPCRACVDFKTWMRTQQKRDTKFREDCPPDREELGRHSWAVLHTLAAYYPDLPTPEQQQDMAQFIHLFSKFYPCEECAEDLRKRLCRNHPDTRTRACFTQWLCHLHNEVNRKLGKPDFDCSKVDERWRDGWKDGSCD
HNF4A DNA FP: change in binding of human HNF4A to DNA, primary screen, biochemical, fluorescence polarization, FITC-DNA. 1 h. AID 1224865, 2016. activity change, % at 10 µM. actives 0.3% (n = 360,000). Hepatocyte nuclear factor 4-alpha (Homo sapiens), P41235; in the data active = activity change above about 30%, passing the limit was not always enough;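 also: controls were the assay level and a saturating level of protein; the project sought stronger binding though the title names inhibitors; some compounds called inactive have numbers as strong as hits; positive values seem to mean higher polarization but the record does not say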
Target sequence (P41235 whole entry, looked up): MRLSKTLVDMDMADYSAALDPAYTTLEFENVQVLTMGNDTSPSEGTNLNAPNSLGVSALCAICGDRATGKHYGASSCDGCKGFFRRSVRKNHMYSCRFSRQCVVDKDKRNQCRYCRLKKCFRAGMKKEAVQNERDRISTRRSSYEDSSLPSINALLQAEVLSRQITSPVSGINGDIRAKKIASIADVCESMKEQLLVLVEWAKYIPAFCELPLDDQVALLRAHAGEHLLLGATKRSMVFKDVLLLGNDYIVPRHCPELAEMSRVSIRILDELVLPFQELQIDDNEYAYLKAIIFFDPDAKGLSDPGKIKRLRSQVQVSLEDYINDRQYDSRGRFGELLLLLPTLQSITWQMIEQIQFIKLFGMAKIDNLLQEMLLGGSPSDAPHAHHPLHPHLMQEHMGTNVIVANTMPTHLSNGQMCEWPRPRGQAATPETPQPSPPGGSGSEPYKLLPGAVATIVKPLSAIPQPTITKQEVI
B2AR ag: beta2AR agonists driving receptor internalization, primary screen, cell-based, FAP fluorogen, flow cytometry. actives 0.43% (n = 340,000). Beta-2 adrenergic receptor (Homo sapiens), P07550. Am2.2-beta2AR cells; reference of the scale not given here. AID 504454, 2011. response, % (no concentration beside the values);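 active = response above a set limit, near 3 SD of response in nonfluorescent compounds, cut at about 42% in these data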;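 also: stock transfer was 100 nL into about 11 µL; a reference agonist was the positive control; negative values mostly stem from fluorescent compounds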
Ecoli rRNA inh OD600: recorded beside Ecoli rRNA inh, whose call it bears; OD600 change, %; measured here: OD600 growth;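 optical density of the mix in the first replicate; 0 = DMSO median and -100 = no signal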
Ecoli rRNA inh RFP: further read-out of Ecoli rRNA inh, marked with its call; RFP signal change, %; measured here: RFP humanized mutant strains;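 first replicate; 0 = DMSO median and -100 = no signal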
The depositor's hits bear a star; i = inactive; x = not tested or not shown; & = joins results of further samples.

SMILES | Ecoli growth | Ecoli rRNA inh | Ecoli rRNA inh OD600 | Ecoli rRNA inh RFP | UCH37 DUB inh | FGF22 binding | ALR H2O2 inh | HNF4A DNA FP | B2AR ag
O=C(COC(=O)c1cc(S(=O)(=O)N2CCOCC2)c(Cl)cc1Cl)Nc1ncc(C(F)(F)F)cc1Cl | 0.715 | x | x | x | 0.8 | x | x | 2.3 | -3.2
Cc1cc(C)c(OCC(=O)Nc2ccccc2N2CCCCC2)c(C)c1 | 0.701 | 6.2 | 10.5 | 1.3 | 3.2 | i | 2.3 | 1.0 | -1.8
COc1ccc(CCC(=O)Nc2cc(Cl)ccc2N2CCN(C)CC2)cc1 | 0.711 | x | x | x | 4.8 | x | 0.6 | x | x
COCCN(Cc1ccccc1)P(=O)(O)c1ccccc1OCC(=O)O | x | x | x | x | 5.4 | x | -3.0 | 0.4 | 4.7
Cc1cccc2nc(CSc3nc4ccc([N+](=O)[O-])cc4[nH]3)c(Br)n12 | 0.702 | x | x | x | 5.3 | x | 0.4 | 0.8 | 11.9
CCOC(=O)C1(Cc2cccc(OC)c2)CCCN(Cc2ccc(NC(C)=O)cc2)C1 (configuration not stated) | 0.729 | 1.8 | -8.6 | -4.7 | 5.2 | i | -6.9 | -5.2 | 4.6
CCc1noc(C)c1C(=O)Nc1ccc(F)c(F)c1F | 0.664 | 3.2 | -2.2 | -0.5 | 3.0 | i | -1.3 | 4.0 | -1.8
O=C(CCNC(=O)c1ccco1)Nc1ccccc1OC(F)F | 0.69 | 4.9 | 7.9 | -1.6 | 3.2 | i | -3.4 | 0.9 | -1.9
O=C(CCN1C(=O)/C(=C/c2ccc3c(c2)OCO3)SC1=S)Nc1ccccc1 | 0.673 | x | x | x | 2.1 | x | -2.9 | -0.3 | 1.6
CCN(CC)CCSc1nc2c([nH]1)c(=S)n(C)c(=O)n2C | x | 7.0 | 12.4 | -1.4 | x | i | x | 3.2 | -14.7
CC(CCCCC(=O)Nc1ccc(C(F)(F)F)cc1)NCCc1cnc[nH]1 (configuration not stated) | 0.679 | x | x | x | 1.0 | x | -5.0 | x | x
COC(CNC(=O)c1ccc(CS(=O)(=O)c2ccccc2)o1)OC | 0.687 | 2.0 | 1.4 | -6.6 | 0.4 | i | -4.7 | -5.8 | -5.3
O=C(CCc1ccccc1)Nc1cc2c(cc1C(=O)O)OCCCO2 | 0.686 | -2.6 | -18.9 | -4.0 | 2.0 | x | 43.4 | -1.1 | 3.8
COc1ccc(C(CCN2CCCCC2)c2c(O)cc(OC)cc2OC)cc1 (configuration not stated) | 0.654 | x | x | x | 0.5 | x | -17.5 | -3.9 | 3.4
Cc1cc2cc(C#N)c(N3CCOCC3)nc2cc1Cl | 0.699 | -5.5 | -2.2 | 0.5 | -10.3 | i | 66.9 | -3.0 | 2.8
Nc1nc(=S)[nH]c2c1C1(CCCC1)Cc1ccccc1-2 | 0.75 | x | x | x | 2.4 | x | -10.0 | -0.3 | 0.9
CN(C)CCNC(=O)CNC(=S)N(CCCN1CCOCC1)Cc1cccs1 | 0.713 | 11.0 | 0.8 | -1.5 | 1.8 | i | 1.9 | 2.4 | 6.8
COc1ccc2c(c1)C(=O)N(Cc1ccccc1)C(=O)C2(C)C | 0.647 | 3.6 | -18.6 | -3.4 | -10.0 | i | x | 0.6 | 6.3
COc1cc(C(=O)Nc2ccc(C)cn2)c([N+](=O)[O-])cc1OC | 0.694 | 4.7 | -2.2 | 4.0 | 4.5 | i | -22.8 | 1.8 | 2.4
CC1CN(C(=S)Nc2ccccc2)C(C)CN1C=O (configuration not stated) | 0.668 | 11.0 | 9.8 | 2.7 | 5.0 | i | x | 3.3 | -6.6
COc1cccc(NC(=O)CN(C)C(=O)c2sc3cc(Cl)ccc3c2Cl)c1 | 0.708 | -12.4 | -16.6 | -4.8 | 2.4 | i | -3.7 | 3.0 | -1.1
COc1ccc(CCN2C(=O)CC(Cc3ccccc3)C2=O)cc1OC (configuration not stated) | 0.701 | -8.8 | -15.5 | -5.5 | 0.2 | i | -5.7 | 0.0 | -3.3
NC(=O)CN1C(=O)C(O)(CC(=O)/C=C\c2ccc3c(c2)OCO3)c2ccccc21 (configuration not stated) | 0.664 | -5.1 | -5.9 | 1.3 | 4.2 | i | 5.2 | 2.6 | 10.7
Cc1nc(C)n(CC(O)COc2ccc3ccccc3c2)n1 (configuration not stated) | 0.686 | x | x | x | 1.8 | x | -11.9 | 1.7 | 4.8
O=C(Nc1ccc(F)cc1F)c1cccn1-c1ncc(C(F)(F)F)cc1Cl | 0.723 | -22.0 | -33.0 | -18.1 | 0.9 | i | -13.9 | 1.1 | -5.3
CC1(C)CC(C(=O)Nc2ccccc2)C(=O)O1 (configuration not stated) | 0.67 | 12.8 | 5.1 | 0.1 | 2.2 | i | 1.5 | -0.7 | -0.2
CCCOc1ccc(CSc2nc3ccccc3[nH]2)cc1 | 0.647 | x | x | x | 4.5 | x | -1.2 | -2.4 | -11.2
CCOC(=O)C1=C(CCc2ccccc2)NC(=O)NC1c1ccc2ccccc2c1 (configuration not stated) | 0.675 | 9.4 | 7.1 | -11.8 | -1.1 | i | x | 5.2 | -12.3
COc1ccc(/C=N/NC(=O)Nc2cccc3nsnc23)c(OC)c1 | x | x | x | x | x | x | -4.6 | 11.8 | -6.5
O=C(CSc1nnc(-c2ccco2)n1-c1ccccc1)NCC1CCCO1 (configuration not stated) | 0.688 | 12.8 | 7.7 | -0.2 | 4.7 | i | -4.1 | 1.1 | -6.7
O=C(NCC1CCCCC1)c1[nH]c(C(F)(F)F)nc1-c1ccccc1 | x | -36.2 | -46.8 | -17.4 | x | i | x | -5.4 | x
COc1ccc(C(=O)NCCc2ccc(C(F)(F)F)cc2)cc1S(=O)(=O)N1CCOCC1 | 0.708 | 10.7 | 14.6 | 0.8 | 2.3 | i | -1.8 | -0.2 | 17.6
CCC(CC)C(=O)Nc1cc(C(=O)OC)cc(C(=O)OC)c1 | 0.673 | x | x | x | 2.3 | x | -7.1 | -0.6 | 0.3
CC(C)c1ccc(S(=O)(=O)N2CCC3(CC2)OCCO3)cc1 | x | 1.3 | -0.8 | -1.0 | x | i | -1.9 | 2.8 | -8.0
COc1cccc2cc(/C(=N/O)c3ccccc3)oc12 | x | -60.3 | -80.2 | -22.6 | x | i | 64.2 | 0.3 | 3.6
C[C@H]1CN([C@@H](C)CO)C(=O)CCCn2cc(nn2)CO[C@@H]1CN(C)C(=O)Nc1ccccc1C(F)(F)F | x | 7.6&-1.2 | 9.3&-0.3 | -1.1&-0.8 | x | i | x | 7.2 | x
COCCn1c(C)cc(C(=O)CN2CCCCC2)c1C | 0.678 | 27.4 | 20.9 | 1.2 | 4.1 | i | 0.8 | 1.8 | -4.8
COc1cc(NC(=O)COc2cc(C)cc3oc(=O)cc(C)c23)cc(OC)c1OC | x | 3.1 | 10.6 | -3.3 | x | i | x | -0.8 | x
CCOC(=O)c1ccc(-c2c(-c3ccccc3OC)sc3ccc(OC)cc23)cc1F | x | 10.0 | 7.2 | 2.8 | -0.4 | i | 2.4 | 4.4 | 18.9
CCCC(=O)Nc1ccc2c(c1)nc(CCN1CCC(C)CC1)n2C | x | -1.2 | 13.7 | 7.4 | x | i | x | 1.3 | x

Three of the entries above in order of their number in Ecoli rRNA inh OD600, ascending:
| molecule | Ecoli rRNA inh OD600 |
| --- | --- |
| CCOC(=O)c1ccc(-c2c(-c3ccccc3OC)sc3ccc(OC)cc23)cc1F | 7.2 |
| COc1ccc(C(=O)NCCc2ccc(C(F)(F)F)cc2)cc1S(=O)(=O)N1CCOCC1 | 14.6 |
| COCCn1c(C)cc(C(=O)CN2CCCCC2)c1C | 20.9 |

Next section.
SMILES | Ecoli growth | Ecoli rRNA inh | Ecoli rRNA inh OD600 | Ecoli rRNA inh RFP | UCH37 DUB inh | FGF22 binding | ALR H2O2 inh | HNF4A DNA FP | B2AR ag
CN(C)CCCNCCCNC(=O)c1ccncc1 | 0.728 | x | x | x | 3.7 | x | x | -7.5 | 1.5
Cc1cccc(C)c1NC(=O)CN1CCN(C(=O)c2cc(C3CC3)nn2-c2ccccc2)CC1 | x | -0.7 | 2.8 | 1.7 | x | i | x | 2.8 | x
CC/C(=N\NC(=O)c1nnn(-c2nonc2N)c1-c1ccc2c(c1)OCO2)c1ccccc1 | x | 4.2 | 4.2 | -2.0 | x | i | 0.0 | -0.7 | -4.4
CCCn1c(C2CCCN2c2nc(-c3ccc(C)cc3)cs2)nc2ccccc21 (configuration not stated) | 0.711 | 6.0 | 9.0 | 10.0 | 0.4 | i | x | 3.4 | -1.2
CCC(NC(=O)NNC(=O)c1ccncc1)(C(F)(F)F)C(F)(F)F | 0.676 | 9.5 | 3.2 | -3.5 | 6.4 | i | 3.7 | 0.3 | 1.8
COC(=O)c1c(C(=O)OC)c(-c2ccc(F)cc2)n2c1CS(=O)C2 (configuration not stated) | 0.633 | 6.1 | 14.2 | 1.6 | 2.3 | i | -1.9 | -5.6 | -6.6
CCCc1cc(C(=O)NNC(=S)NC(C)c2ccccc2)cs1 (configuration not stated) | 0.703 | x | x | x | 4.2 | x | 27.5 | -1.5 | 0.8
O=C(OC(C(=O)O)C(OC(=O)c1ccccc1)C(=O)NCc1ccccc1)c1ccccc1 (configuration not stated) | 0.677 | x | x | x | 0.6 | x | -1.5 | -1.8 | 20.3
CCCNS(=O)(=O)c1ccc(CCC(=O)NCC2CCCO2)cc1 (configuration not stated) | 0.698 | x | x | x | 1.9 | x | -10.2 | -2.2 | 1.7
COc1ccc(-c2csc(NC(=O)CSc3ncn[nH]3)n2)cc1OC | 0.651 | -15.3 | -6.4 | 3.1 | 2.5 | i | 48.4 | 2.1 | 5.3
O=c1cc(CO)occ1OCc1ccccc1 | 0.704 | x | x | x | 0.0 | x | 0.5 | 2.2 | 6.7
CCc1nc2ccccc2n(CCOCCOCCn2c(=O)c(CC)nc3ccccc32)c1=O | 0.78 | x | x | x | -6.1 | x | x | -4.2 | -19.3
COc1cc(C(=O)c2cocc2C(=O)c2ccc3c(c2)OCO3)cc(OC)c1OC | 0.652 | -1.5 | -3.3 | -2.5 | 4.1 | i | -1.8 | -3.0 | 13.7
COC(=O)c1cccc(CN2C(=O)C(C)Sc3ccc(C)cc32)c1 (configuration not stated) | x | -8.1 | -23.5 | -3.2 | x | i | x | 0.5 | x
CCOc1ccc(NC(=O)CN(C)C(=O)c2ccccc2SCc2c(C)noc2C)cc1OCC | 0.72 | -2.0 | -10.0 | 0.8 | 3.1 | i | -4.5 | 2.3 | -0.6
COc1ccc(NC(=O)c2ccc(OC)c(S(=O)(=O)N3CCCCC3C)c2)cn1 (configuration not stated) | 0.719 | -2.3 | -10.8 | 1.7 | 4.0 | i | -56.9 | -7.3 | 4.0
O=C(O)CSc1nnc(COc2ccc(Br)cc2)n1-c1ccccc1 | x | 4.2 | 13.2 | 6.5 | x | x | 1.9 | 3.1 | -7.1
COc1ccc(OC)c2sc(N3CCN(c4ccccc4)CC3)nc12 | 0.708 | x | x | x | 2.2 | x | -29.4 | -0.1 | 11.4
COC(=O)NCc1cccc(CNC(=O)OC)c1 | 0.679 | x | x | x | -1.0 | x | 10.9 | 0.8 | 0.7

These rows are one share of the data, so the mix of outcomes need not match the whole.
